HCMV UL50-53 inh: cytomegalovirus nuclear egress complex inhibition | HTRF UL50-UL53 interaction, normalized percent inhibition | inhibition, % (no concentration beside the values) | actives 0.15% (n = 190,000) | AID 1918969;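 active = both replicates at 50% or more, plus weaker picks with an unusually low signal ratio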;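 also: stock transfer was 100 nL into about 20 µL; 0% = negative control wells and 100% = wells with untagged competitor protein; inactives centre near -12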
GIV Gai3 FP: inhibitors of GIV GBA-motif binding to rat Galpha-i3. AID 1224905. percent of control (FP), % (concentration not given with the values). Galpha-i3/FITC-GIV peptide fluorescence polarization, 90 min; stronger effect = lower value; scaled: aluminum fluoride 0%, vehicle 100%. actives 0.42% (n = 210,000);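 active = replicate mean at 85% of control or lower, very high polarization wells dropped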;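 also: wells of about 15 µL received 100 nL stock; the first replicate is given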
Target sequence (P08753 whole entry, looked up): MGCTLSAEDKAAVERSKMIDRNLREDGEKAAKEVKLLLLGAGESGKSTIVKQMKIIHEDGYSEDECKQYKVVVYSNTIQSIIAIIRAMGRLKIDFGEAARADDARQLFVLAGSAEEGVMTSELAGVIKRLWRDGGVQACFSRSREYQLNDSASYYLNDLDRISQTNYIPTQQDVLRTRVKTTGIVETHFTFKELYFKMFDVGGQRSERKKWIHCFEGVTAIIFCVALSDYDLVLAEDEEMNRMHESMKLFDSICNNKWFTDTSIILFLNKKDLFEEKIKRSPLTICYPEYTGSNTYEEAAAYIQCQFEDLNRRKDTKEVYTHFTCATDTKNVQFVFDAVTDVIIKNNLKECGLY
Sa growth inh: S. aureus growth inhibition | AID 720641 | actives 0.53% (n = 170,000) | relative growth, % (concentration not given with the values) | S. aureus RN4220 growth, OD600, 20 h, 42 °C; stronger effect = lower value;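 active = growth at 42 °C up to 50% and 20 or more points under that at 30 °C, or under 10% at both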;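 also: 300 nL library stock went into each well; scaled to the means of positive and negative controls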
Sa growth inh second temp: also measured in Sa growth inh; calls as there; relative growth, %; measured here: growth at 30 °C;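 optical density after 20 h as mean of two plates; 100% = untreated growth and lower means inhibition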
The depositor's hits bear a star; . = no result given; & = joins results of further samples.

SMILES	HCMV UL50-53 inh	GIV Gai3 FP	Sa growth inh	Sa growth inh second temp
CC(NC(=O)c1ccccc1OCC(=O)NC12CC3CC(CC(C3)C1)C2)c1ccccc1 (configuration not stated)	-10.2	.	71.2	90.1
CCOc1ccccc1-c1nnc(SC(C(=O)N(C)C)c2ccccc2)o1 (configuration not stated)	-25.2	.	100.1	89.4
CCOC(=O)c1c(C)[nH]c(NC(=O)Nc2c(CC)cccc2CC)c1C	-6.5	99.0	.	.
N#CC1=C(N)Oc2c(oc(CO)cc2=O)C1c1ccsc1 (configuration not stated)	-2.0	.	124.3	81.1
Cc1ccc(SCC(=O)N2CCC(C(F)(F)F)CC2)cc1	-4.7	96.3	104.9	104.1
COc1ccc(C(CNS(=O)(=O)c2cccs2)N2CCN(C)CC2)cc1 (configuration not stated)	-20.5	97.1	92.8	88.6
O=C(NCCCN1CCOCC1)C1C2C=CC3(CN(Cc4cccs4)C(=O)C13)O2 (configuration not stated)	.	98.1	110.9	87.9
CCc1ccc(-n2c(=O)c3cccnc3n2CC(=O)Nc2ccc(F)cc2F)cc1	-7.6	105.2	.	.
COc1ccc(N2CCN(C(=O)CCc3c(C)nc4c(-c5ccccc5)c(C)nn4c3C)CC2)cc1	-41.5	101.4	105.0	91.0
Cc1ccc(S(=O)(=O)N2C(=O)CCC2C(=O)N(Cc2nc(-c3cccc(C)c3)no2)C(C)C)cc1 (configuration not stated)	.	96.0	93.0	93.7
Cc1cc(Nc2ccccc2)n2ncnc2n1	-22.0	107.0	94.2	86.1
COc1ccc(Cn2c(CO)cnc2SCC(=O)N(C)c2ccccc2)cc1	-21.7	104.4	112.8	84.9
CCCCn1nnnc1COC(=O)c1cc(OC)c(OC)cc1NC(=O)c1ccco1	-23.4	.	77.6	89.9
CN1CC(=O)N(C)c2ccccc21	-12.4	98.5	64.5	60.5
CCOC(=O)c1c(CC(C)C)csc1/N=C/C1C(=O)CCCC1=O	.	105.5	121.5	76.1
Cc1c(-c2ccccc2)c(=O)oc2ccc(OC(=O)N3CCOCC3)cc12	.	93.7	89.1	86.2
Cc1cc(-n2c(C)cc(C(=O)COC(=O)C(C)Nc3ncnc4sc(C)c(C)c34)c2C)no1 (configuration not stated)	-24.4	.	96.3	98.5
CC1C(=O)CCN(CCCO)C1C (configuration not stated)	-5.0	96.8	89.0	84.2
O=C1C2C(c3ccccc3)C=CC(c3ccccc3)C2C(=O)N1CCCO (configuration not stated)	-6.6	102.6	111.4	94.8
NC(=O)c1ccccc1NC(=O)CCC1CCCCC1	-0.9	96.7	105.0	81.6
O=C([C@@H](c1ccccc1)N1Cc2ccccc2C1=O)N1CCCC1	.	102.7	113.0	87.4
C/C(=N\OCc1ccc(C#N)cc1)c1ccccc1	3.8	.	67.2	88.1
Cc1cc(C)nc(-n2nc(C)c3c2NC(=O)CC3c2ccsc2)n1 (configuration not stated)	-9.0	104.1	.	.
CN1/C(=C\C(=O)CN(Cc2ccco2)S(=O)(=O)c2ccc3c(c2)OCCO3)C(C)(C)c2ccccc21	-3.1	.	94.4	93.9
CCOc1ncccc1C(=O)Nc1cc(Cl)ccc1N1CCOCC1	-26.4	.	77.6	93.1
CN(C)c1ccc(/C=C/C(=C(C#N)C#N)C2CC2)cc1	-39.2	-45.0*	126.8	122.7
C=CCNc1nc(NC2CCN(C(=O)OCC)CC2)nc(OCC)n1	-5.9	105.3	93.1	82.4
COc1ccc(C(=O)NCCn2cc(SCC(=O)N3CCCCC3)c3ccccc32)cc1	.	98.2	121.9	80.8
CCC(C(=O)N1CCc2ccccc21)n1nc(-c2ccc(C)cc2)ccc1=O (configuration not stated)	-21.8	103.3	.	.
Cc1ccc(C#N)c(SCCCn2c(=O)[nH]c3ccccc32)n1	0.2	111.7	116.3	88.2
NC(=S)c1cnccc1C(F)(F)F	-16.6	98.8	120.3	86.2
O=C(c1cc2ccc3cccnc3c2[nH]1)N1CCN(c2cccc(Cl)c2)CC1	.	110.2	122.5	104.2
CCOC(=O)N1CCN(C(=O)c2c[nH]c3ccc(S(=O)(=O)N(CC)CC)cc3c2=O)CC1	-30.5	103.5	100.0	92.1
O=C(Oc1ccc(-c2nnco2)cc1)c1cc(-c2ccccc2)nn1-c1ccccc1	0.2	.	87.8	94.7
O=C(CSc1nccn1-c1ccc(Cl)cc1)Nc1nc2ccccc2s1	.	98.0	135.9	99.7
CC(C)=CC(=O)N1CCCc2ccccc21	-6.4	102.0	99.0	97.5
COc1ccc(CNC(=O)C(OC(C)=O)c2ccccn2)cc1 (configuration not stated)	-7.0	100.6	106.4	82.5
COc1ccc(-n2nnc3c(=O)n(C/C=C/c4ccccc4)cnc32)cc1	-1.3	100.3	89.5	94.8
N#Cc1ccc(Sc2ccc(Cl)cc2)nc1	-48.2	99.4	100.0	86.6
O=C(OCCO)c1cc(Cl)c(C(=O)OCCO)cc1Cl	-6.6	106.0	106.0	101.7
CCN1CCN(Cc2cc(=O)n3[nH]c(-c4ccc(C(C)(C)C)cc4)nc3n2)CC1	-27.5	101.7	.	.
Cc1nn(-c2ccccc2)c2nc(Cl)c(C3N=C(N)Nc4nc5ccccc5n43)cc12 (configuration not stated)	10.4	.	104.8	97.3
COC(=O)c1cccnc1-n1c(=O)c2cccnc2n(CC(=O)Nc2cccc(C)c2)c1=O	-120.4	103.4	93.3	106.1
Cn1c(C(=O)NC2CC2)cc2c(=O)oc3ccccc3c21	2.9	105.2	.	.
CCCn1c(=O)c2sccc2n2c(CCCC(=O)N3CCN(c4ccc(OC)cc4)CC3)nnc12	.	102.9	81.6	79.7
COc1cccc(Cn2nnc(C(=O)NCc3ccc(Cl)cc3Cl)c2N)c1	13.4	100.9	104.9	91.5
O=C(Cn1ncc2c1-c1ccccc1OC2)NC1CC1	2.4	107.4	119.3	96.5
CC(C)(C)NC(=O)c1ccc2c(c1)CCO2	-1.6	100.4	112.5	89.2
CCOc1ccc(CNC(=O)C2CCN(c3nnc(-n4cccc4CNc4ccc(C)cc4)s3)CC2)cc1OC	-14.1	101.7	101.2	92.9
Cc1cccc(-c2noc(CSc3n[nH]c(=O)c4cc(-c5ccc(F)cc5)nn34)n2)c1	-19.0	105.8	.	.

New compounds follow
SMILES	HCMV UL50-53 inh	GIV Gai3 FP	Sa growth inh	Sa growth inh second temp
Cc1onc(-c2ccccc2)c1C(N)=O	-7.2	98.2	.	.
CC1CCN(c2nc3c(c(=O)n(C)c(=O)n3C)n2Cc2cccc(Br)c2)CC1	-7.9	104.6	.	.
Cc1nnc(NC(=O)CSc2nc3c([nH]c4ccccc43)c(=O)n2-c2ccccc2)s1	.	99.3	105.2	87.8
CC(C)(O)CC[C@@H](O)[C@](C)(O)C1CC[C@@]2(O)C3=CC(=O)C4CC(O)C(O)CC4(C)C3CCC12C (some centres not stated)	-30.5	101.1	87.3	94.5
C=CCn1nnc2sc3c(c2c1=O)CCC(C)C3 (configuration not stated)	-36.1	114.8	86.3	96.7
O=C(CCc1nnc(C(=O)Nc2ccccc2)s1)NC1CCN(Cc2ccccc2)CC1	-11.9	96.6	.	.
CC(C)N(C(=O)CSc1ccccc1Cl)c1ccccc1	-11.5	.	95.8	92.7
CCN(C(=O)CSc1nnc(C2CC2)n1-c1ccccc1)C1=CCCC1	-26.5	.	78.4	88.3
O=C(COC(=O)COc1ccccc1)Nc1ccccc1	-17.3	.	90.4	89.6
O=C(Nc1ccc2[nH]ccc2c1)c1ccc2nonc2c1	-72.3	95.9	108.3	93.9
CNc1ccccc1C(=O)OCC(=O)c1ccccc1	.	103.3	84.4	91.3
Cc1nc2ccc(S(=O)(=O)N(C)CC(=O)N3CCc4ccccc4C3)cc2s1	3.3	103.1	87.9	86.5
CCC(=O)NCCc1sc2nc(-c3ccc(OC)cc3)nn2c1C	.	95.8&97.7	135.7	88.0
O=C(NCCc1nc2cccnc2n1C1CCCCC1)Nc1ccc2c(c1)OCCO2	-18.9	111.1	.	.
CN1CCC(=NNC(=O)CCSc2ccc(Cl)cc2)CC1	9.0	98.9	90.8	112.8
O=C(NCC(c1ccco1)S(=O)(=O)c1ccc(Cl)cc1)c1ccccc1F (configuration not stated)	.	105.9	92.1	77.6
CCOC(=O)Cc1csc(NC(=O)c2ccc(S(=O)(=O)N3CCCC3)cc2)n1	-15.6	.	90.7	86.7
NC(=O)c1ccsc1NC(=O)CSc1nc(-c2ccccc2)cs1	-5.9	.	106.1	79.7
Cc1oc(-c2ccc(Cl)cc2)nc1CSc1nc2c(c(=O)[nH]1)CCC2	-9.3	109.8	.	.
Cc1ccc(N2CC(NS(=O)(=O)N(C)C)CC2=O)cc1C (configuration not stated)	-15.6	102.2	98.3	93.1
O=C1CCCc2c1cnc1c2c(=O)[nH]c(=O)n1CCN1CCOCC1	-7.1	114.2	.	.
Cc1noc(C)c1C(=O)O/N=C(\N)c1ccc(OC(F)(F)F)cc1	-17.4	101.4	88.5	86.1
CC1CCCCN1S(=O)(=O)c1ccc(S(=O)(=O)NCc2ccc3c(c2)OCO3)cc1 (configuration not stated)	14.5	105.3	109.1	122.2
CCC(=O)N1N=C(c2c(-c3ccccc3)c3cc(Cl)ccc3[nH]c2=O)CC1c1ccco1 (configuration not stated)	-53.1	106.7	121.7	92.4
Cc1cccc(C(=O)Nc2cc(-c3nc4cccnc4s3)ccc2C)c1	-1.3	107.3	93.2	91.0
Clc1cccc(-c2cc3c(N4CCN(Cc5ccc6c(c5)OCO6)CC4)nccn3n2)c1	9.4	111.4	.	.
CCOC(=O)c1ccccc1NC(=O)CCN1C(=O)c2ccccc2C1=O	12.1	105.6	100.6	97.6
O=C(c1cccc(Cl)c1)N1CCNCC1	5.9	.	152.3	91.0
CN1CCN(C(=O)Nc2ccccc2Cl)c2ccccc21	-51.7	106.0	.	.
Cc1ccc(C)c(NC2(C#N)CCCCC2)c1	10.6	107.5	88.6	89.0
O=C(CSc1nc2ccccc2nc1N1CCCC1)N1CCN(c2ccccc2)CC1	-18.4	96.8	.	.
CN(C)CCCn1c(-c2ccc(Cl)cc2)c(CC(=O)O)sc1=Nc1ccccc1	-21.7	.	93.8	87.1
Fc1ccccc1-c1ccc(SCc2nc(-c3ccccc3)no2)nn1	-10.0	106.5	.	.
CCCN(Cc1cc2cccc(C)c2[nH]c1=O)C(=O)c1cccc(Cl)c1	9.9	104.9	101.3	89.0
Cc1ccc(NC(=O)C2CCCN(S(=O)(=O)c3cn(C(C)C)cn3)C2)c(C)c1 (configuration not stated)	.	97.2	79.0	88.2
CCCC(C)C(=O)N(C)c1ccccc1 (configuration not stated)	-10.6	103.5	103.5	106.8
CC(C)Cn1c(=O)c(=O)[nH]c2cc(-c3noc(CCc4c[nH]c5ccccc45)n3)ccc21	-23.2	100.9	.	.
COc1cc(OC)cc(N2C(=O)C3CC(C)=C(C)CC3C2=O)c1 (configuration not stated)	-0.1	104.0	116.2	98.5
O=C(NCCC1=CCCCC1)c1ccc2cn[nH]c2c1	2.7	98.7	103.6	99.9
Cc1ccc(NC(=O)C2CCN(c3ncccn3)CC2)cc1F	-12.3	101.0	102.8	94.9
Cc1cc(C)cc(NC(=O)N2CCSc3ncccc32)c1	-5.0	101.3	.	.
CCOc1ccccc1NC(=O)Cn1c(=O)ccc2cc(S(=O)(=O)N3CCCC3)ccc21	.	96.2	105.0	84.5
COC(=O)c1c(NC(=O)/C=C/c2ccccc2)sc2c1CCCC2	-24.8	.	99.2	88.2
O=C(Nc1ccccc1)Nc1nccc(-c2cc(OCC(F)(F)F)ccc2OCC(F)(F)F)n1	-15.6	104.2	83.3	91.3
CCn1c(SCC(=O)Nc2ccc(C)cc2Br)nnc1-c1nonc1NC(C)=O	6.0	98.5	87.1	88.4
COc1cc(NC(=O)CSc2nc3ccccc3nc2Cc2ccccc2OC)cc(OC)c1	.	98.0	102.9	65.2

Among those listed so far, 10 have a thiophene ring, fused or not:
SMILES	HCMV UL50-53 inh	GIV Gai3 FP	Sa growth inh	Sa growth inh second temp
N#CC1=C(N)Oc2c(oc(CO)cc2=O)C1c1ccsc1 (configuration not stated)	-2.0	.	124.3	81.1
COc1ccc(C(CNS(=O)(=O)c2cccs2)N2CCN(C)CC2)cc1 (configuration not stated)	-20.5	97.1	92.8	88.6
O=C(NCCCN1CCOCC1)C1C2C=CC3(CN(Cc4cccs4)C(=O)C13)O2 (configuration not stated)	.	98.1	110.9	87.9
CCOC(=O)c1c(CC(C)C)csc1/N=C/C1C(=O)CCCC1=O	.	105.5	121.5	76.1
Cc1cc(-n2c(C)cc(C(=O)COC(=O)C(C)Nc3ncnc4sc(C)c(C)c34)c2C)no1 (configuration not stated)	-24.4	.	96.3	98.5
Cc1cc(C)nc(-n2nc(C)c3c2NC(=O)CC3c2ccsc2)n1 (configuration not stated)	-9.0	104.1	.	.
CCCn1c(=O)c2sccc2n2c(CCCC(=O)N3CCN(c4ccc(OC)cc4)CC3)nnc12	.	102.9	81.6	79.7
C=CCn1nnc2sc3c(c2c1=O)CCC(C)C3 (configuration not stated)	-36.1	114.8	86.3	96.7
NC(=O)c1ccsc1NC(=O)CSc1nc(-c2ccccc2)cs1	-5.9	.	106.1	79.7
COC(=O)c1c(NC(=O)/C=C/c2ccccc2)sc2c1CCCC2	-24.8	.	99.2	88.2

Screening data deposited in PubChem by ICCB-Longwood Screening Facility, Harvard Medical School.
